# HIV TAR-Tat = HIV-1 TAR-Tat binding disruption. HIV-1 TAR RNA, Tat peptide displacement FRET; hits give high values. z-score (no concentration beside the values). 100,000 tested, 0.6% active;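 also: score is relative to mean and SD of negative controls; some compounds called inactive have numbers as strong as hits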
# CDC25B-CDK2 inh = human CDC25B-CDK2/CyclinA binding inhibition; 94,000 tested, 0.72% active; z-score (no concentration beside the values); P30305+P24941; AID 1259370; HTRF CDC25B-CDK2/CyclinA binding, anti-His/anti-Flag; hits give high values;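 also: score is relative to mean and SD of negative controls; strong numbers were not always called active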
# * hit, by the source's call; / = no result given.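 The calls were made as follows: active = z-score from 3 up in half or more of its runs; inactive = the rest.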
# Below each compound – HIV TAR-Tat | CDC25B-CDK2 inh
> O=C(Nc1ccccc1Cl)c1cc2c(s1)-c1ccccc1S(=O)(=O)C2
    1.3 | -0.36
> CCN1CCN(C(=O)NC(C(=O)N[C@@H]2C(=O)N3[C@@H]2SC(C)(C)[C@@H]3C(=O)O)c2ccccc2)C(=O)C1=O (stereo partly drawn)
    0.13 | /
> Cc1c(C(=O)N2CCN(CCc3ccncc3)CC2)oc2ccc(Br)cc12
    1.7 | 0.36
> CCOc1ccccc1-c1nnc(SCc2ccc(Cl)cc2)o1
    1.1 | -1.5
> O=C(Nc1cccnc1)C1OCCc2ccccc21 (stereo not drawn)
    1.7 | -1.3
> N#CC1=C2SCN(c3ccc(Cl)cc3)CN2C(=O)CC1c1cccs1 (stereo not drawn)
    -0.61 | 6.3*
> Cc1ccc(C)c(CN2CCC(CN3CNc4c(c(=O)n(C)c(=O)n4C)C3)CC2)c1
    2.1 | -0.49
> O=S(=O)(c1ccc2c(c1)OCCCO2)N(Cc1ccccn1)Cc1ccccn1
    / | -2
> CCOC(=O)c1cnn(C)c1NS(C)(=O)=O
    / | -1.3
> CC(=O)Nc1c(Cl)c(Cl)c(NC(C)=O)c2n[nH]nc12
    / | -1.8
> CC(C)CCNS(=O)(=O)c1cc(Br)cnc1N
    1 | 0.93
> Cc1ccc(-c2c(NC3CCCc4ccccc43)c(=O)c2=O)cc1 (stereo not drawn)
    2.1 | /
> Cc1cc(=O)oc2cc(O)c(O)cc12
    2.9 | /
> CCOC(=O)c1[nH]c(C)c(C(=O)NCCN(C)C)c1C
    -0.62 | -0.66
> O=C1CC(c2ccccc2)CC2=C1C(c1cc3c(cc1Br)OCO3)Nc1ccccc1N2 (stereo not drawn)
    2.4 | -1.7
> O=c1cc(CSc2ccc(Cl)cc2)nc2nc[nH]n12
    0.19 | 0.5
> CN(C)c1cccc(N(C)C)c1CNC(=O)C(Cl)(Cl)Cl
    / | -0.06
> COc1cccc(N2CCN(S(=O)(=O)c3cn(C)cn3)CC2)c1
    2.8 | /
> CN1CCN(CCCNc2ncnc3onc(-c4ccc(F)cc4)c23)CC1
    0.71 | /
> Cc1csc(NC(=O)CSc2nn3c(=O)c(C)nnc3s2)n1
    -1.3 | /
> CC1(C)CC(=O)C2=C(C1)N(c1ccc(S(N)(=O)=O)cc1)C(N)=C(C#N)C2c1ccccc1Cl (stereo not drawn)
    0.84 | -1.5
> CC(C)CC(NS(=O)(=O)c1ccc2[nH]c(=O)ccc2c1)C(=O)NC1CCCC1 (stereo not drawn)
    1.6 | /
> O=C(CCN1C(=O)c2ccccc2S1(=O)=O)NCc1ccco1
    / | -0.58
> C[C@H](NC(CCc1ccccc1)C(=O)O)C(=O)N1CCC[C@H]1C(=O)O (stereo partly drawn)
    2.7 | -0.34
> NC(=O)N/C(CSc1ccc(Cl)cc1)=N\O
    / | 0.4
> Cc1ccc(-c2nc(=S)c3c([nH]2)Oc2c(C)ncc(CO)c2C3)cc1
    0.02 | 1.1
> CC1=C(c2ccc(C(C)C)cc2)S(=O)(=O)N=C1Nc1ccc(F)cc1C
    0.61 | 0.52
> COc1ccc(C2Nc3ccccc3NC3=C2C(=O)CC(c2ccccc2Cl)C3)cc1O (stereo not drawn)
    / | -2.1
> COc1ccc(C)cc1NC(c1ccccn1)c1ccc2cccnc2c1O (stereo not drawn)
    1.5 | -2.9
> Clc1cc(N2CCOCC2)nc(N2CCOCC2)n1
    / | -0.53
> Cn1c(=O)n(CCOc2ccccc2)c2ccccc21
    -0.84 | -2
> CCCCNc1nc(Oc2ccc(=O)n(C)n2)nc(N(CC)CC)n1
    0.97 | -1.5
> CCCCc1nn2c(=O)cc(COC(=O)CC(C)C)nc2s1
    0.64 | /
> CCOc1ccc(S(=O)(=O)N2CCN(c3cc(N(C)C)nc(C)n3)CC2)c(OCC)c1
    -0.45 | -1.1
> COCCn1c(C)cc(C(=O)CSc2nnc3c(C)cc4ccccc4n23)c1C
    / | -0.46
> CCOC(=O)c1noc2nc(C)nc(Nc3ccccc3F)c12
    0.48 | /
> O=C(O)CC(CC(=O)O)c1ccc(C(F)(F)F)cc1
    / | 5.7
> CCOc1cc(C2C3=C(CCCC3=O)NC3=C2C(=O)CCC3)ccc1O
    2.2 | -2.1
> Cc1ccc(-c2cn3cccnc3n2)cc1NS(=O)(=O)c1ccccc1
    / | -1.4
> Cc1cccc(NC(=O)c2cc3c(=O)n(C)c4ccccc4c3n2C)n1
    / | -0.71
> COc1ccccc1N1CSC2=C(C#N)C(c3ccc(Br)cc3)CC(=O)N2C1 (stereo not drawn)
    -4.8 | 1.5
> CCOc1ccc(-c2cccc(NS(=O)(=O)c3ccc(C)cc3)c2)nn1
    0.54 | /
> c1ccc2nn(C34CC5CC(CC(C5)C3)C4)nc2c1
    / | -0.31
> COC(=O)c1cnn(-c2c(Cl)cc(Cl)cc2Cl)c1C(OC)OC
    / | -1.6
> CCc1nn2c(=O)cc(CSc3ccccc3NC(=O)c3ccco3)nc2s1
    1.8 | /
> Cc1cc(C)c(NC(=O)C(C)Sc2nc3c(c(=O)[nH]2)CCC3)c(C)c1 (stereo not drawn)
    -2.9 | 0.36
> O=C(NCCc1cccs1)c1ccc(CN2CC(=O)N3CSCC3C2=O)cc1 (stereo not drawn)
    1.3 | /
> CN(C)C(=S)Nc1ccc([N+](=O)[O-])cc1
    / | -1.3
> CCCCCNC(=O)Cn1cnc2c1c(=O)n(C)c(=O)n2C
    0.14 | -0.23
> CC1CCC(C)N1c1cc(C(F)(F)F)cc(C(F)(F)F)c1 (stereo not drawn)
    / | -1.8
> CCOc1cccc2c1OC1(C)CC2NC(=O)N1c1ccccc1F (stereo not drawn)
    / | -0.88
> O=C(Nc1nonc1-c1ccccc1)c1nn(-c2ccc(F)cc2)ccc1=O
    0.36 | 1.3
> COc1ccc(NC2c3ncccc3C(=O)N2Cc2ccco2)cc1OC (stereo not drawn)
    -4.3 | 8.8
> CS(=O)(=O)c1ccc2nc(NC(=O)CCCc3ccccc3)sc2c1
    / | -2.2
> O=C(NCc1cccnc1)c1cc(-c2ccc(Cl)cc2)on1
    / | -0.62
> CC(C)Cc1nn2c(=O)cc(COC(=O)CNC(=O)c3ccco3)nc2s1
    1.7 | /
> N#CSCc1ccccc1[N+](=O)[O-]
    / | -1.2
> O=C1CC(c2ccccc2Cl)Cc2nc(N3CCc4ccccc4C3)ncc21 (stereo not drawn)
    -0.16 | -0.04
> O=C(Cn1c(=O)n(-c2ccc(Cl)cc2)c(=O)c2c3c(sc21)CCCC3)NCC1CCCO1 (stereo not drawn)
    / | -2.3
> CCOC(=O)c1nc(N2CCN(Cc3ccc4c(c3)OCO4)CC2)c2c(C)noc2n1
    1.6 | /

# The list continues:
# Below each compound – HIV TAR-Tat | CDC25B-CDK2 inh
> CCCN(CCC)C(=O)c1cc(S(=O)(=O)N2CCc3ccccc32)cn1C
    2.6 | /
> Cc1ccc(N2C(=O)CC(C)CC2=O)cc1
    / | -1.4
> COc1ccc(N2C(=O)CSC2c2ccc3c(c2)OCO3)c(OC)c1 (stereo not drawn)
    / | -2.7
> CC1(C)CC(=O)C2=C(C1)c1c(ccc3ccccc13)NC2c1ccc(O)cc1 (stereo not drawn)
    -2.1 | 0.65
> O=C(Nc1c[nH]c(=O)[nH]c1=O)c1ccco1
    0.29 | -0.73
> CC(C(=O)N1CCCc2c1c(=O)oc1ccc(O)cc21)N1CCCCCC1 (stereo not drawn)
    / | -0.12
> COc1ccc(-n2nc(C(=O)Oc3ccc([N+](=O)[O-])cc3)c3ccccc3c2=O)cc1
    / | -1.6
> O=S(=O)(c1ccc(Br)cc1)N1CCN(Cc2cccc(F)c2)CC1
    / | -0.52
> CCC(C)NS(=O)(=O)c1cc(-c2cc(C)no2)ccc1C(C)C (stereo not drawn)
    1.1 | /
> CCOC(=O)C1=C(C)NC2=C(C(=O)CCC2)C1c1cc2c(cc1Cl)OCO2 (stereo not drawn)
    0.35 | -1.7
> FC(F)(F)c1cc(-c2cccnc2)nc2c(-c3ccccc3)cnn12
    0.35 | -0.59
> O=C(NC(c1ccccc1)c1ccccc1)c1cnc2sccn2c1=O
    / | -1.5
> COc1ccc2c(c1)C=C(C(=O)Nc1ccc(Br)cc1)C=CO2
    -0.75 | -1.9
> Cc1c(-c2c(C#N)cnn2-c2ccc([N+](=O)[O-])cc2)sc2ccc(Cl)cc12
    / | -1.7
> O=C(O)c1cncc(C(=O)O)c1
    / | -1.5
> O=C1CCCC2=C1C(c1ccc(Cl)cc1)n1nc(SCc3ccc(C(=O)O)cc3)nc1N2 (stereo not drawn)
    -1.2 | -1.4
> COc1ccc(CNc2nc3nc4c(c(=O)n3[nH]2)CCC4)cc1
    -2.2 | 0.08
> O=C(NCC1CCN(C2CCCC2)C1)Nc1ccc(Br)cc1F (stereo not drawn)
    -0.37 | -0.6
> O=C1CCCC2=C1C(c1ccccn1)Nc1ccc3ncccc3c12 (stereo not drawn)
    / | -0.87
> CCC(C(=O)NCCCN1CCOCC1)n1nc(C)n2c(cc3sccc32)c1=O (stereo not drawn)
    0.31 | 0.26
> Cc1oc(-c2ccc(Cl)cc2)nc1CN1N=NC2C(=O)N(c3ccc(F)cc3)C(=O)C21 (stereo not drawn)
    -0.18 | /
> S=C(Nc1ccc(Br)c(Cl)c1)N1CCCCC1
    / | 1.3
> CCSc1nnc(NC(=O)C2CCCCC2)s1
    2.5 | -1.9
> N#Cc1c(NC(=O)c2ccc(S(=O)(=O)N3CCCCC3)cc2)sc2c1CCCC2
    1.1 | -3.6
> CC(=O)Oc1cccc(C2OC(c3cccc(Br)c3)=NN2C(C)=O)c1OC(C)=O (stereo not drawn)
    0.65 | /
> c1ccc(-c2cn(-c3ccccc3)c3ncnc(NCc4ccc5c(c4)OCO5)c23)cc1
    1.5 | -0.91
> CCOC(=O)C(O)(C(=O)OCC)C1Cc2ccccc2C1=O (stereo not drawn)
    / | -0.71
> O=C(NCc1nnnn1-c1ccc(Cl)cc1)C1CC(=O)N(c2ccccc2)C1 (stereo not drawn)
    -0.56 | /
> CN1C(C(=O)NCc2cccnc2)=CC(c2ccco2)=NS1(=O)=O
    0.66 | -3.5
> CCOC(=O)/C(C#N)=C\Nc1cc(OC)cc2cccnc12
    / | -0.93

# An excerpt of these results, field by field:
CCOC(=O)C(O)(C(=O)OCC)C1Cc2ccccc2C1=O (stereo not drawn)
  HIV TAR-Tat = /
  CDC25B-CDK2 inh = -0.71

O=C(NCc1nnnn1-c1ccc(Cl)cc1)C1CC(=O)N(c2ccccc2)C1 (stereo not drawn)
  HIV TAR-Tat = -0.56
  CDC25B-CDK2 inh = /

# Going on with the list.
# Below each compound – HIV TAR-Tat | CDC25B-CDK2 inh
> Cn1c(=O)c2c(-c3ccccc3)n(-c3ccccc3Br)cc2n(C)c1=O
    1.1 | -2.1
> Cc1cc(N)n2nc(C)c(-c3ccc(Cl)cc3)c2n1
    0.48 | -1.4
> Cc1nn2c3c(cnc2c1-c1ccc(F)cc1)C(=O)CC(c1cccs1)C3 (stereo not drawn)
    -2.9 | -1.3
> O=C1Nc2ccc(Br)cc2C1Cc1ccco1 (stereo not drawn)
    -0.37 | -1.1
> Cc1nn(CC(=O)N2CCCCCC2)c(=O)c2cc3occc3n12
    / | 1.8
> Cc1nnc(N2CCCC(C(=O)N3CCC(C(N)=O)CC3)C2)c2nn(-c3ccc(Cl)cc3)c(C)c12 (stereo not drawn)
    0.95 | /
> c1ccc(CN2CCN(c3ncnc4sc5c(c34)CCCC5)CC2)cc1
    1.2 | /
> Cc1cc(C)cc(NS(=O)(=O)c2cc3[nH]c4c(c3cc2C)C(=O)CC(C)(C)C4)c1
    1.6 | /
> O=C1c2ccccc2CC(=O)c2sccc21
    / | 4.4
> Cc1ccc(-n2ncc3c2ncn2nc(Cc4ccccc4)nc32)cc1C
    1.9 | -2.1
> COc1ccc(C)cc1NS(=O)(=O)c1ccc(-c2cc(C)no2)s1
    0.59 | /
> O=C1CC(Nc2ccc(Oc3ccccc3)cc2)C(=O)N1c1ccc(F)cc1 (stereo not drawn)
    0.05 | -0.07
> Cn1cnc(S(=O)(=O)N2CCc3ccccc3C2)c1
    0.22 | /
> Cc1[nH]c2ccccc2c1C1(O)C(=O)N(CCOc2ccccc2)c2ccccc21 (stereo not drawn)
    -0.43 | -1.6
> Cc1ccc(C(=O)CC2(O)C(=O)N(Cc3ccccc3)c3ccc(Br)cc32)cc1 (stereo not drawn)
    / | -0.59
> Cc1noc(/C=C/c2cccs2)c1S(=O)(=O)N1CCC(C(=O)NC2CCC(C)CC2)CC1 (stereo not drawn)
    0.56 | -1.5
> O=C(Nc1ccccc1F)c1[nH]nc2c1CCc1ccccc1-2
    0.75 | /
> Cc1sc(N)c(C(=O)c2cccc(C(F)(F)F)c2)c1C
    -2.9 | /
> O=C1N(Cc2ccccc2F)C2CS(=O)(=O)CC2N1c1ccccc1 (stereo not drawn)
    1.4 | /
> CCOC(=O)c1c(COc2ccccc2)oc2ccc(O)cc12
    1 | -1.7
> COCC(=O)c1[nH]c2ccccc2c1C
    0.93 | -2.7
> CC(=O)Oc1ccc(Br)cc1C1OC(c2ccco2)=NN1C(C)=O (stereo not drawn)
    -0.94 | /
> CC(=O)NC(NCc1ccccc1)(C(F)(F)F)C(F)(F)F
    / | -1.2

# Pulled one by one from the list above, 6 records:
# Below each compound – HIV TAR-Tat | CDC25B-CDK2 inh
> O=C(CCN1C(=O)c2ccccc2S1(=O)=O)NCc1ccco1
    / | -0.58
> CCOc1cccc2c1OC1(C)CC2NC(=O)N1c1ccccc1F (stereo not drawn)
    / | -0.88
> COc1cccc(N2CCN(S(=O)(=O)c3cn(C)cn3)CC2)c1
    2.8 | /
> CCOc1ccc(-c2cccc(NS(=O)(=O)c3ccc(C)cc3)c2)nn1
    0.54 | /
> COc1ccc(N2C(=O)CSC2c2ccc3c(c2)OCO3)c(OC)c1 (stereo not drawn)
    / | -2.7
> CCC(C(=O)NCCCN1CCOCC1)n1nc(C)n2c(cc3sccc32)c1=O (stereo not drawn)
    0.31 | 0.26
